Mtb bLac sens: beta-lactam sensitization of Mtb H37Rv. actives 0.27% (n = 330,000). M. tuberculosis H37Rv growth with meropenem, percent inhibition; hits of this screen are not shown here. inhibition, % at 25 µM;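 active = about 74% or more and at least 40 points above the plate without the antibiotic, then above 30% in a dose series; inconclusive = first-round hits that could not be retested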;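 also: growth measured after seven days incubation then overnight dye step; 0% = bacteria only wells and 100% = bacteria with antibiotic; twin plates without the antibiotic show which effects depend on it; some results filed as inactive read as strong as hits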
Mtb H37Rv: M. tuberculosis H37Rv growth inhibitors, H37Rv strain (AID 1626); M. tuberculosis H37Rv growth inhibition; higher % means a stronger effect; inhibition, % at 10 µM, or IC50 in µM where a hit was titrated; actives 0.95% (n = 220,000);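 active = confirmed in a dose series; inconclusive = inhibition above 80% but not taken into the dose series; inactive = below 80% or under 30% at every dose of the series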;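 also: bacteria incubated seven days before Alamar blue readout; 0% = bacteria only wells and 100% = bacteria with antibiotic wells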
RecA intein inh: Mtb RecA intein splicing inhibition; P9WHJ3; cell-free RecA intein splicing, fluorescence; inhibition, %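 (about 9 µM by stock and volumes)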; actives 0.75% (n = 290,000); AID 2221; in the data active = inhibition above about 30%; inconclusive = no clear call, values can overlap the other calls;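 also: 0% = vehicle wells and 100% = reference inhibitor control wells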
Target sequence (P9WHJ3 whole entry, looked up): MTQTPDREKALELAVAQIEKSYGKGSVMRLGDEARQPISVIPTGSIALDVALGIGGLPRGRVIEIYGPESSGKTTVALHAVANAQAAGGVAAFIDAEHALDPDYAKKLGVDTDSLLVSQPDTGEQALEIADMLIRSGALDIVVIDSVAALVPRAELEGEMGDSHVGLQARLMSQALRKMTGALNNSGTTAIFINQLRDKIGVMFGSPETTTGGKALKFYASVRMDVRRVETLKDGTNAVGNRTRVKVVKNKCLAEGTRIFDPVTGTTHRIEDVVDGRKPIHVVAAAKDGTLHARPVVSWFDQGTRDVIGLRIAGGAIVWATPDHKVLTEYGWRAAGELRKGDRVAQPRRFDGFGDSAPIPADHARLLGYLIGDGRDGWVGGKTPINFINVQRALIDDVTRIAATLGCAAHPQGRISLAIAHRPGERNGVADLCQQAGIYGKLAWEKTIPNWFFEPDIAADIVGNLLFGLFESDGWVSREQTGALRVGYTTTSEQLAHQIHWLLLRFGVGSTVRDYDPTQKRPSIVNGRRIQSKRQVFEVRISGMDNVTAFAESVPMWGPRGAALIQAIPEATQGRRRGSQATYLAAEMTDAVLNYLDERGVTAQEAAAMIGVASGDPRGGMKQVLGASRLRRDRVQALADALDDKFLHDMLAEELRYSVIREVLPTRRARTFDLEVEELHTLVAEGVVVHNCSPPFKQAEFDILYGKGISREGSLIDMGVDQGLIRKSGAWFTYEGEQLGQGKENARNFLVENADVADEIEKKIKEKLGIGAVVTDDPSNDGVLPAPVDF
YopH PTP inh: YopH (Yersinia) phosphatase inhibition. actives 0.16% (n = 140,000). fluorescence Ex485/Em525. inhibition, %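 (about 10 µM by stock and volumes)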. AID 898;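 active = inhibition of 50% or more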;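 also: controls were vehicle for no effect and minimum signal wells for full effect; inactives centre near -20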
Arbovirus anti: arbovirus infection inhibition; AID 1251; arbovirus infection cell-based antiviral screen; actives 0.37% (n = 200,000); inhibition, % at 10 µM;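 active = inhibition from about 30%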;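 also: bluetongue infection of BSR cells; cell survival read as ATP light after 72 h; 0% = infected wells without compound and 100% = uninfected wells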
Arbovirus anti repeat: also measured in Arbovirus anti; calls as there; inhibition, %; measured here: 10K subset replicate screen; many hits read low in the repeat;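 first of two repeat runs on a subset; 0% = infected and 100% = uninfected wells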
* = called active by the depositor; ? = inconclusive; · = no result given.

SMILES | Mtb bLac sens | Mtb H37Rv | RecA intein inh | YopH PTP inh | Arbovirus anti | others
O=C(CN1CCN(c2ccc(F)cc2)CC1)Nc1ccc2c(c1)OCCO2 | -3 | · | -2.6 | · | ·
Cc1ccc2nc(NC(=O)C3CCN(c4ncnc5sc(C)c(C)c45)CC3)sc2c1 | ? | · | 2.3 | · | ·
CCN(CC)C(=O)C1CCN(S(=O)(=O)c2cccc3nonc23)CC1 | 4 | -5% | 1.1 | -34 | 10
CCN(CC)CCNC(=O)c1ccc(Cl)c(S(=O)(=O)Nc2ccc(Cl)cc2)c1 | -7 | 4% | 0.0 | -3 | 6
CCCCC(=O)NS(=O)(=O)c1ccc(N=NN2CCCCC2)cc1 | 2 | 13% | -0.4 | -44 | 8
CC1(c2ccccc2Cl)NC(=O)N(CC(=O)Nc2ccc3c(c2)OCO3)C1=O (configuration not stated) | 0 | 0% | 2.5 | · | 28
Cc1ccc(NC(=O)CN2C(=O)CC(C)S(=O)(=O)c3ccccc32)cc1 (configuration not stated) | -8 | · | 0.6 | · | ·
CN1C(=O)N(CN2CCCCC2)C2C1N(C)C(=O)N2CN1CCCCC1 (configuration not stated) | -13 | 2% | 0.6 | -3 | 4
O=C(Nc1ccc(NC(=O)c2ccc3c(c2)OCCO3)cc1)c1ccccc1 | -1 | · | 1.7 | · | ·
COc1ccc(C2CC(c3ccccc3)=NN2c2ccc(S(N)(=O)=O)cc2)cc1 (configuration not stated) | 94 | 49% | -11 | · | -32
COc1ccc2c(c1)CCc1c(C(=O)NCC(C)C)noc1-2 | 3 | 6% | 5.2 | · | 10
CNC(=S)NNC(=O)c1sc2cc(C(F)(F)F)cnc2c1-c1cccnc1 | -5 | 4% | -8.2 | · | 6
O=C(NC(=S)N1CCN(C/C=C/c2ccccc2)CC1)c1ccc(F)cc1 | 83 | ? | 5.5 | · | ·
CCN(CC)CCN1c2ccccc2Sc2ccc3ccccc3c21 | 56 | 10µM* | -0.3 | · | ·
Cc1ccc(S(=O)(=O)N2CCOCC2)cc1C(=O)NC1CCCC1 | -11 | · | 1.0 | · | ·
Oc1cc2ccccc2cc1-c1n[nH]c(=S)o1 | -2 | -2% | -4.2 | -46 | 10
COc1ccccc1-c1cc(C(F)(F)F)nc(S(=O)(=O)CCCC(=O)N2CCCCC2C)n1 (configuration not stated) | 52 | 4% | 56* | -10 | -32
CC(=O)/C(=N\Nc1ccccc1Cl)Sc1cccc2cccnc12 | -4 | 4% | -0.7 | -23 | -4
COc1cc(C(c2c(C)[nH][nH]c2=O)c2c(C)[nH][nH]c2=O)cc(Br)c1OC | -13 | · | 99* | · | ·
CC(C)NC(=O)NNC(=O)c1nn(-c2ccc(F)cc2)ccc1=O | -3 | -10% | · | · | ·
COc1ccc(C(N)=S)c(OC)c1 | 11 | -11% | · | -12 | -3
CCn1c(Cn2nnc(-c3ccccc3)n2)nnc1SCc1ccc(Cl)c(Cl)c1 | 6 | 9% | · | -10 | -32
COC(=O)c1c(-c2ccc(F)cc2)csc1NC(=O)c1ccco1 | 2 | 6% | -2.1 | 2 | -8 | Arbovirus anti repeat=-2
COc1ccc(C2c3c(ccc4ccccc34)Oc3ncn4nc(-c5ccco5)nc4c32)cc1OC (configuration not stated) | 4 | -1% | 0.3 | -16 | -3
Cc1ccc(OCCSc2nnc(NC(=O)c3ccco3)s2)cc1 | -4 | -10% | 2.3 | -6 | -6
COc1ccc(NC(=O)c2c(-c3ccccc3Cl)noc2C)c(OC)c1 | 7 | 2% | 4.1 | -21 | 5
O=C(Nc1ccccc1)Nc1nnc(SCc2ccc(Cl)cc2)s1 | -4 | -9% | -3.7 | -11 | 9
CCOC1=NS(=O)(=O)c2ccccc21 | 0 | 0% | 1.2 | -21 | 1
CCOc1ccc(/C=N/NC(=O)COc2ccccc2-c2ccccc2)cc1 | -4 | 4% | 1.2 | -33 | -7
CN(C)S(=O)(=O)c1ccc(Cl)c(NC(=O)CN2CCCC2)c1 | -16 | · | 0.7 | · | ·
Cc1cc2c(c(=O)o1)C(Cc1ccccc1)C(C#N)=C(N)O2 (configuration not stated) | -9 | -1% | -0.6 | -13 | -1
CCOc1ccc(N2C(=O)Nc3ccccc3C2(O)C(=O)NCc2ccc3c(c2)OCO3)cc1 (configuration not stated) | 6 | 2% | 1.4 | -16 | -7
CCOC(=O)N1CCN(C(=O)c2cc3c(=O)n(C)c4ccccc4c3n2C)CC1 | -1 | 4% | -0.3 | -19 | 0 | Arbovirus anti repeat=-2
CCN(Cc1ccccc1)S(=O)(=O)c1nc2nc(C)c(C)c(C)n2n1 | -2 | -10% | -2.7 | -47 | -3
O=C(Cn1cc(C(=O)c2cccs2)c2ccccc21)NCc1ccc2c(c1)OCO2 | -4 | 5% | -0.3 | · | 4 | Arbovirus anti repeat=-3
COc1cccc(OC)c1C1=NCC(=O)Nc2c1oc1ccc(Br)cc21 | -3 | 9% | 11 | -21 | -17
CCC(C(=O)NCc1ccc(C)o1)n1nc(C)c2c(C)n(-c3ccccc3)nc2c1=O (configuration not stated) | 4 | · | 6.3 | · | ·
COc1cccc(NC(=O)CN2C(=O)NC3(CCCC3)C2=O)c1 | -3 | · | 1.0 | · | ·
COc1ccccc1CNC(=O)CSC(=S)N1CCCC1 | -5 | · | -1.0 | · | ·
O=C(CCNC(=O)c1ccc(Br)cc1)NCc1ccccn1 | -7 | · | -1.5 | · | ·
CC(=O)Nc1ccc(S(=O)(=O)N2CCSC2c2ccco2)cc1 (configuration not stated) | -11 | -1% | -1.8 | · | 8
O=C1CC(N2CCOCC2)=NN1c1ccc([N+](=O)[O-])cc1 | 67 | ? | 1.9 | · | ·
CC1(C(=O)Nc2ccc3c(c2)OCO3)CC1(Cl)Cl (configuration not stated) | -11 | · | -2.7 | · | ·
COc1cc(C(=O)NCC2CCCCC2)cc(OC)c1OC | 11 | · | -0.2 | · | ·
CCOc1ccc(S(=O)(=O)N2CC(=O)Nc3ccccc32)cc1C#N | 5 | · | -0.7 | · | ·
N#Cc1c(F)cccc1N1CCOCC1 | -16 | -7% | -0.7 | -49 | 1
O=C(O)CCC(=O)Nc1ccccc1C(=O)Nc1ccccc1 | -5 | -13% | · | -6 | -5
O=C(CC1Sc2ccccc2NC1=O)OC(C(=O)NCCc1ccccc1)c1cccnc1 (configuration not stated) | -10 | · | 6.9 | 7 | -2
CCn1c(SCC(=O)NC(C)C(C)C)nc2cc(S(=O)(=O)N3CCOCC3)ccc21 (configuration not stated) | -22 | · | 4.0 | · | ·
CCCc1cc(C(=O)Nc2cc(OC)c(Cl)cc2OC)no1 | -3 | · | 2.5 | -43 | 1 | Arbovirus anti repeat=-1
O=C(CSc1nc2ccsc2c(=O)n1Cc1ccccc1)NCc1ccco1 | -8 | -3% | 1.2 | -44 | 1
CCCCn1nnc(NC(=O)CC23CC4CC(CC(C4)C2)C3)n1 | -12 | -7% | 1.3 | 15 | 5
COc1cc2c(=O)n(Cc3ccccc3)c(=O)n(CC(=O)NCC3CCCO3)c2cc1OC (configuration not stated) | 1 | -4% | -0.4 | -36 | 5 | Arbovirus anti repeat=2
Clc1ccc(CSc2nnc([C@@H]3CCCN3)o2)cc1 | 43 | 11% | -0.6 | -36 | -3
COc1ccc(C(C#N)N2CCC(c3ccccc3)=N2)cc1OC (configuration not stated) | -5 | -8% | 2.4 | · | 0
COC(=O)C1=C[C@@H](C(=O)OC)[C@@H]2C3=C(C(=O)[C@]2(C)NC(=O)c2ccccc2)[C@H](C)n2c(=O)n(-c4ccccc4)c(=O)n2[C@@H]3C1 | -4 | -7% | 0.2 | · | ·
CC(C)c1ccc(/C=N/NC(=O)c2nnn(-c3nonc3N)c2CN(C)C2CCCCC2)cc1 | 1 | · | -1.5 | · | ·
NS(=O)(=O)c1ccc(CCNC(=O)Cn2c(=O)c3cccn3c3cccnc32)cc1 | -11 | · | -4.4 | · | ·
Cc1cc(NC(=O)c2cc([N+](=O)[O-])cc([N+](=O)[O-])c2)no1 | 100 | ? | 0.4 | · | ·
CCOC(=O)C1=C(C)Nc2ncnn2C1c1ccc2c(c1)OCO2 (configuration not stated) | 3 | -4% | 2.2 | -18 | 17

Next section; the last two above are carried over.
SMILES | Mtb bLac sens | Mtb H37Rv | RecA intein inh | YopH PTP inh | Arbovirus anti | others
Cc1cc(NC(=O)c2cc([N+](=O)[O-])cc([N+](=O)[O-])c2)no1 | 100 | ? | 0.4 | · | ·
CCOC(=O)C1=C(C)Nc2ncnn2C1c1ccc2c(c1)OCO2 (configuration not stated) | 3 | -4% | 2.2 | -18 | 17
COCCn1c(SCC(=O)N2CCCCC2)nc2ccccc2c1=O | -8 | 0% | 0.7 | -34 | -3
C/C(=N/NC(=O)c1ccc2nc[nH]c2c1)c1cccs1 | 0 | 2% | 0.0 | -25 | -2
CC1CCN(S(=O)(=O)c2cc(Cl)ccc2Br)CC1 | 4 | -1% | -0.2 | 1 | -1
O=C(CCN1C(=O)c2ccccc2C1=O)CN1CCOCC1 | 2 | 1% | 0.5 | · | 7
CC(/C=C/c1ccc2c(c1)OCO2)=N\NC(=O)c1cccc([N+](=O)[O-])c1 | 95 | 62% | -0.8 | -29 | -15
O=C(O)C1CCC(=O)N(C2CCCCC2)C1c1ccccc1 (configuration not stated) | -7 | -7% | 0.1 | -32 | 22
CCOc1ccc(S(=O)(=O)N(C)c2ccc(OCC(=O)NC3=NCCS3)cc2)cc1 | -5 | -10% | 0.1 | · | 24
Cc1ccc(-c2csc3ncnc(Cl)c23)cc1 | -7 | 2% | 8.3 | 4 | 4
O=C(NC(=S)Nc1cc(-c2nc3ccccc3[nH]2)ccc1Cl)c1ccc2c(c1)OCO2 | 26 | 45% | 0.0 | -20 | -31
Cc1nc2oc3ccc(F)cc3c(=O)c2cc1C(=O)NC(C)(C)C | -7 | 6% | 0.1 | · | -1
O=C(NC1CCSC1=O)C1CCCCC1 (configuration not stated) | 4 | -7% | -0.5 | · | -1
CCOc1ncccc1C(=O)OCc1ccccc1 | 28 | 3% | 0.4 | -22 | -5
O=C1CN(C(=O)N[C@@H](Cc2ccccc2)C(=O)N[C@@H](C(=O)O)c2ccccc2)c2ccccc2N1 | -3 | · | 0.6 | · | ·
CC(C)Cc1cc(C(=O)N2CCCC(CO)(Cc3ccc(F)cc3)C2)no1 (configuration not stated) | 10 | · | -1.2 | · | ·
O=C(NCc1ccc2c(c1)CCO2)Nc1ccccc1 | -2 | 3% | -1.6 | · | ·
COc1ccc(N2CCN(CC(=O)Nc3ncc(C)s3)CC2)cc1 | 0 | · | -2.4 | · | ·
CCN1CCN(c2cc(C)c3cc(NC(=S)N4CCCC4)ccc3n2)CC1 | -9 | -3% | -2.8 | · | -4
NC(=S)NNC(=O)COc1ccccc1O | -9 | -7% | -3.3 | · | ·
CCOc1ccc(NC(=O)COc2nsnc2N2CCCCC2)cc1 | -6 | -2% | 2.7 | -46 | -12
Cc1cccc(OC(=O)c2ccncc2)c1C | 4 | 0% | 11 | · | 15
CN(CC(=O)NC1CC1)S(=O)(=O)c1ccc(Br)cc1 | ? | · | -4.0 | · | ·
Cn1c(=O)c(S(=O)(=O)C(C)(C)C)c(O)c2ccccc21 | 4 | -9% | -3.1 | -32 | 0
O=C(NCCc1ccccc1)C1CCCN(C(=O)Nc2ccc(F)cc2)C1 (configuration not stated) | 0 | · | 1.7 | · | ·
CCOc1ccccc1/C=N/NC(=O)c1cc(C(C)C)[nH]n1 | -1 | · | -1.1 | · | ·
CCOC(=O)N1CCN(C(=O)c2ccc(CNS(=O)(=O)c3ccc(OC)cc3)cc2)CC1 | -6 | -3% | -1.5 | -50 | -7
O=C(CC1CCCCC1)NCCCN1CCOCC1 | 4 | 2% | -2.5 | -45 | -1 | Arbovirus anti repeat=8
COc1ccc2c(c1OC)C(=O)N1c3cccc(Cl)c3C(=O)OC21 (configuration not stated) | -1 | -10% | 0.6 | -48 | -6

6 compounds from above, sorted by heavy-atom count, low to high.
SMILES | Mtb bLac sens | Mtb H37Rv | RecA intein inh | YopH PTP inh | Arbovirus anti | others
NC(=S)NNC(=O)COc1ccccc1O | -9 | -7% | -3.3 | · | ·
Cc1cccc(OC(=O)c2ccncc2)c1C | 4 | 0% | 11 | · | 15
CCOc1ccccc1/C=N/NC(=O)c1cc(C(C)C)[nH]n1 | -1 | · | -1.1 | · | ·
COc1ccc2c(c1OC)C(=O)N1c3cccc(Cl)c3C(=O)OC21 (configuration not stated) | -1 | -10% | 0.6 | -48 | -6
CCN1CCN(c2cc(C)c3cc(NC(=S)N4CCCC4)ccc3n2)CC1 | -9 | -3% | -2.8 | · | -4
CCOC(=O)N1CCN(C(=O)c2ccc(CNS(=O)(=O)c3ccc(OC)cc3)cc2)CC1 | -6 | -3% | -1.5 | -50 | -7

High-throughput results as filed in PubChem.

A portion of the library; rates above refer to the full screens.
